# Screening data: PubChem, several laboratories
# CSC inhib – cancer stem cell viability inhibitors, primary screen, luminescence | cancer stem cell-like cells viability | 1.1% of 300,000 active | inhibition, % at 7.5 µM;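 active = mean at 75% or more and at least half the replicates too; tested in HMLE shEcad cells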;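 also: 0% = median of negative and 100% = median of positive control wells; the first replicate is given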
# eIF4H inh – human eIF4H binding inhibitors, primary screen, translation initiation inhibitor project, biochemical, uHTS, fluorescence polarization. Eukaryotic translation initiation factor 4H (Homo sapiens), Q15056. eIF4H fluorescence polarization binding assay. inhibition, % at 35 µM. 0.94% of 290,000 active. AID 2012, 2009;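 active = 50% or more with normal probe brightness, or confirmed in later tests; about a fifth of its hits are not listed in these tables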;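 also: calls also rest on retests at 20 µM and on dose response follow-up; 0% = protein and probe with vehicle and 100% = probe without protein; strong numbers were not always called active; many hits fall short of the cut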
# HIV Env fusion – inhibitors of HIV-1 Env-driven cell-cell fusion, primary screen, HeLa-JRFL effector, CEM21 target cells, luciferase; AID 651610, 2012; inhibition, % at 12.3 µM; 1.1% of 360,000 active;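 active = mean replicate inhibition score of at least 50 and every replicate individually at or above 50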;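 also: 0% = plate neutral controls and 100% = maraviroc near 300 nM; one replicate is shown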
# PABP FP inh – PABP poly(A) RNA binding inhibitors, primary screen, biochemical, fluorescence polarization, uHTS; inhibition, % at 35 µM; 1% of 290,000 active;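 active = 50% or more with normal probe brightness, or confirmed in later tests; about a fifth of its hits are not listed in these tables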;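 also: calls also rest on retests at 20 µM and on dose response follow-up; controls were probe without protein and protein plus probe with vehicle; some compounds called inactive have numbers as strong as hits; many hits fall short of the cut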
# Rce1 inhib – yeast Rce1p protease inhibitors, primary screen, biochemical, fluorescence, cell-free homogeneous; CAAX prenyl protease 2 (Saccharomyces cerevisiae (strain ATCC 204508 / S288c)), Q03530; yeast membranes, quenched prenylated peptide cleavage fluorescence; calls only; 0.27% of 290,000 active; AID 2563, 2010;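 active = fall in fluorescence gain of 50% or more versus controls, with final raw signal at or below 3038400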;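 also: plate controls were neutral control wells for no effect and wells lacking membranes for full effect; tested at 10 µM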
# Target sequence (Q03530 whole entry, looked up): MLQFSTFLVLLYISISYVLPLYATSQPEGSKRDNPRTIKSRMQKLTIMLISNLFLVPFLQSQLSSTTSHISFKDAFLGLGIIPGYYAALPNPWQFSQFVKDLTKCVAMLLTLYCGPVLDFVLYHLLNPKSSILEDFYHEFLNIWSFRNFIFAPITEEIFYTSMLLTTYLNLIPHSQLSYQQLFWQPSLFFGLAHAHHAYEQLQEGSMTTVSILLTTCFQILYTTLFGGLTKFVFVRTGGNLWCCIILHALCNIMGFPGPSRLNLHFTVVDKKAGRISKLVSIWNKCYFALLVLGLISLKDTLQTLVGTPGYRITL
# UUG fidelity – modulators of yeast start codon fidelity, primary screen, whole organism, S. cerevisiae, single point, plate reader; activity score, % at 18.7 µM; 0.13% of 350,000 active; S. cerevisiae UUG-firefly luciferase reporter, luminescence/redox ratio;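 active = replicate mean at a twofold rise or more, about +100% in these data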;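 also: firefly luciferase made from a UUG start codon reports start codon fidelity; reporter light over untreated wells divided by growth signal over untreated wells; some hits fall short of that in this replicate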
# MT1-MMP act inh – blockers of MT1-MMP proenzyme processing, primary screen, HT1080 RFP-PRO-GFP cells, GFP/RFP fluorescence | GFP/RFP ratio change, % at 20 µM | GFP/RFP ratio fluorescence, overnight; percent of plate control window, DMSO zero | 0.061% of 360,000 active | AID 651647, 2012;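 active = GFP/RFP ratio change of at least 30% with cell ATP level not reduced by more than half and red fluorescence within 50% of control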; also: strong numbers were not always called active
#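 Test system: HT1080 RFP-PRO-GFP cells; Benchmarks: DMSO and RFP-L50D-GFP cell wells; Timing: cells overnight before dosing, compound overnight, 37 °C, 5% CO2; Compound: one 20 µM compound dose with 1% DMSO; Read-out: GFP/RFP fluorescence ratio.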
# MT1-MMP act inh RFP – also measured in MT1-MMP act inh; calls as there; RFP signal change, %; measured here: RFP expression control read;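 0 = vehicle wells; hits needed this value within 50% of zero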
# Active calls of the source: *; i = inactive; x = no result given; & = joins results of further samples; [ ] = remark or other dose.
SMILES,CSC inhib,eIF4H inh,HIV Env fusion,PABP FP inh,Rce1 inhib,UUG fidelity,MT1-MMP act inh,MT1-MMP act inh RFP
COc1cc(OC)c(OC)cc1/C=N/Nc1nc2ccccc2[nH]1,-15,3,-6,-4,i,x,9,3
Cc1ccc(S(=O)(=O)CCSc2nc(C)cc(C)c2C#N)cc1,15,3,x,4,i,-5,4,1
O=C(COc1ccc([N+](=O)[O-])cc1Cl)N1CCOCC1,1,-1,0,2,i,-13,-7,-2
CCCCN(CCCC)S(=O)(=O)c1ccc(NC(=O)Cc2cccs2)cc1,47,20,x,10,i,-14,-12,-13
COC(=O)Nc1nn(-c2ccc(OC)cc2)c(=O)c(C#N)c1C,-4,1,18,8,i,-9,0,-3
O=C(Nc1ccc(Cl)cc1)N1CCSc2ccccc21,-17,5,-30,0,i,-19,-1,-1
Cn1cc([N+](=O)[O-])c(C(=O)Nc2sc3c(c2C#N)CCC3)n1,41,-10,-1,11,i,15,-17,-17
CC1CCCCC1NC(=O)Cn1cnc2ccccc2c1=O (stereo not given),0,-1,x,-3,i,-11,5,6
COc1cc2ccccc2cc1C(=O)Nc1ccccc1C,x,-1,-47,-4,i,-14,-3,-2
CC1(OC(=O)c2cccs2)C(=O)C=C2C=C3CCCN3C=C2C1=O (stereo not given),-18,95*,x,84*,i,-14,7,-1
O=C(N/N=C/C(Br)=C/c1ccccc1)c1cccnc1,6,5,-5,-3,i,-27,3,0
N=C1C(c2nc3ccccc3s2)=C(O)CN1c1ccccc1,38,-1,13,-8,i,x,-2,-2

# Record cards, from the list above:
# `CCCCN(CCCC)S(=O)(=O)c1ccc(NC(=O)Cc2cccs2)cc1` is listed with CSC inhib: 47; eIF4H inh: 20; HIV Env fusion: x; PABP FP inh: 10; Rce1 inhib: i; UUG fidelity: -14; MT1-MMP act inh: -12; MT1-MMP act inh RFP: -13
# `N=C1C(c2nc3ccccc3s2)=C(O)CN1c1ccccc1` is listed with CSC inhib: 38; eIF4H inh: -1; HIV Env fusion: 13; PABP FP inh: -8; Rce1 inhib: i; UUG fidelity: x; MT1-MMP act inh: -2; MT1-MMP act inh RFP: -2

# In another format: results already given.
SMILES | CSC inhib | eIF4H inh | HIV Env fusion | PABP FP inh | Rce1 inhib | UUG fidelity | MT1-MMP act inh | MT1-MMP act inh RFP
O=C(Nc1ccc(Cl)cc1)N1CCSc2ccccc21 | -17 | 5 | -30 | 0 | i | -19 | -1 | -1
Cn1cc([N+](=O)[O-])c(C(=O)Nc2sc3c(c2C#N)CCC3)n1 | 41 | -10 | -1 | 11 | i | 15 | -17 | -17
CC1CCCCC1NC(=O)Cn1cnc2ccccc2c1=O (stereo not given) | 0 | -1 | x | -3 | i | -11 | 5 | 6
COc1cc2ccccc2cc1C(=O)Nc1ccccc1C | x | -1 | -47 | -4 | i | -14 | -3 | -2

# Following part:
SMILES,CSC inhib,eIF4H inh,HIV Env fusion,PABP FP inh,Rce1 inhib,UUG fidelity,MT1-MMP act inh,MT1-MMP act inh RFP
COc1ccc(CCN(C(=O)COc2ccccc2)c2nc(-c3ccccc3)cs2)cc1OC,1,-1,-24,-10,i,-22,5,-2
N#Cc1ccccc1NC(=O)CN1CCN(Cc2ccccc2)CC1,-2,-1,16,-12,i,-6,3,2
Cc1c[n+]([O-])n(-c2ccc(C(=O)O)cc2)n1,-19,3,x,6,i,60,-2,2
C[C@H](CO)N1C[C@H](C)[C@@H](CN(C)C(=O)Nc2ccccc2)Oc2cc(Br)ccc2S1(=O)=O,x,x,9[16.7 µM],x,x,-15&2,-1,-1
CCOC(=O)C1=C(C)NC(=O)NC1c1ccc(F)cc1 (stereo not given),-1,-7,1,-2,x,x,5,-1
O=C(N/N=C/c1ccc(F)cc1)c1cc[n+]([O-])cc1,-1,4,2,14,i,2,1,3
CC(=O)c1ccc(NC(=O)c2ccc(S(=O)(=O)N3CCCC3)cc2)cc1,-9,2,x,6,i,-10,3,-3
NNC(=O)c1sccc1OCc1ccc(Cl)cc1Cl,-4,-9,27,-12,i,x,-3,-8
COC(=O)c1nc(-c2ccccc2)oc1N1CCOCC1,-1,-1,2,1,i,x,1,4
CCOC(=O)c1c(S(=O)(=O)Nc2ccc(CN3CCC(C)CC3)cc2)c(C)n(C)c1C,13,1,3,-2,i,-10,2,9
Cc1nn(C)cc1CNC(=O)c1cccc(F)c1,3,-9,1,-6,i,x,-2,3
Cn1c(COc2ccc(Br)cc2)nnc1SC1CCc2ccccc2C1=O (stereo not given),14,-2,3,-4,i,-15,0,-7
Cc1cc(N2CCN(C)CC2)n2nc(-c3ccc(Cl)cc3)nc2n1,8,9,0,1,i,x,1,1
CC[C@@H](C)[C@@H](CO)NC(=O)[C@H]1O[C@@H](n2cnc3c(N)ncnc32)[C@H](O)[C@@H]1O,x,x,10,x,x,-11,2,2
COc1cccc(CSc2nnc(-c3ccco3)n2C)c1,-9,-6,-4,2,i,-20,2,2
CCC(C)(C)n1nnnc1C(c1cc2cc(C)ccc2[nH]c1=O)N1CCCC1 (stereo not given),10,16,-24,22,i,-13,-2,3
Cc1ccc(CC2C(=O)N(c3ccc(F)cc3)C(=O)C2C)cc1 (stereo not given),-13,14,5,6,i,-7,2,0
O=C1C=C(c2cccc(CO)c2)C[C@@H](c2ccc(Cl)cc2)C1,3,x,-19,x,x,-14,13,-4
CCOc1ccc(CNC(=O)c2ccccc2NC(=O)C2=CSCCO2)cc1,-13,-11,7,13,i,-11,-4,-7

# Random excerpt: three compounds from above
SMILES,CSC inhib,eIF4H inh,HIV Env fusion,PABP FP inh,Rce1 inhib,UUG fidelity,MT1-MMP act inh,MT1-MMP act inh RFP
COc1cccc(CSc2nnc(-c3ccco3)n2C)c1,-9,-6,-4,2,i,-20,2,2
O=C1C=C(c2cccc(CO)c2)C[C@@H](c2ccc(Cl)cc2)C1,3,x,-19,x,x,-14,13,-4
CC[C@@H](C)[C@@H](CO)NC(=O)[C@H]1O[C@@H](n2cnc3c(N)ncnc32)[C@H](O)[C@@H]1O,x,x,10,x,x,-11,2,2
